Screening data deposited in PubChem by several laboratories.
ugtP null kill = kills S. aureus RN4220 lacking UgtP. S. aureus RN4220 ugtP deletion, OD600 growth, 16 h; some inactives read as strong as hits. hit rate 0.54% among 330,000. growth inhibition, % (concentration not given with the values);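 active = z-score under -3 and OD600 up to 0.15 on both plates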;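 note: plate controls were untreated wells for no effect and antibiotic for full effect; wells of about 80 µL received 100 nL stock; the first replicate is given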
Mtb hypoxia rep = inhibitors of hypoxia-regulated fluorescent reporter in Mycobacterium tuberculosis; M. tuberculosis hypoxia-regulated fluorescent reporter, fluorescence; fluorescence inhibition, % (test concentration not listed); hit rate 0.1% among 300,000; AID 1159583;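 active = 35 to 45% if threefold the growth effect, above 45% if 1.5-fold the growth effect; inactive = the rest, general growth blockers included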;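 note: wells of about 50 µL received 100 nL stock; 0% = vehicle wells and 100% = reference inhibitor wells; whole bacteria with a GFP reporter of the hypoxia response; strong numbers were not always called active; many hits fall short of the cut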
Autofluor counter = flagged as autofluorescent in microsphere protease counterscreen; compound autofluorescence counterscreen, microsphere flow cytometry; hits give high values; fluorescence intensity (test concentration not listed); hit rate 3.1% among 360,000; AID 624483;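 active = at least 3 SD above the mean of all compounds, about 16000 in these data; inconclusive = too few beads counted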;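 note: 100 nL of 1 mM stock went into each well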
PrP UTR inh = suppresses PrP 5' UTR mRNA reporter expression; cell-based PrP 5' UTR mRNA reporter, plate reader; inhibition, % (concentration not given with the values); hit rate 0.35% among 340,000;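 active = every replicate at 50% or more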;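 note: 0 = median of the neutral control wells; tested in H4 reporter cells; numbers are from one replicate; inactives centre near -14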
RN4220 kill = S. aureus RN4220 growth inhibition; OD600, 16 h; inhibition, % (concentration not given with the values); hit rate 0.33% among 330,000;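 active = z-score of -3 or lower and OD600 up to 0.18 on both plates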;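 note: plate controls were untreated cells for no effect and reference antibiotic for full effect; stock transfer was 100 nL into about 80 µL; one replicate is shown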
BJeLR lethal = kills HRASV12-expressing BJeLR cells. BJeLR (HRASV12) viability, CellTiter-Glo ATP luminescence, 48 h; reference of the scale not given here. inhibition, % (no concentration beside the values). hit rate 0.17% among 300,000;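 active = replicate mean above 50%; inconclusive = above 50% but judged a plate artefact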;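 note: 50 nL library stock added to about 25 µL; numbers are from one replicate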
Mtb hypoxia rep growth = also measured in Mtb hypoxia rep; calls as there; growth inhibition, %; measured here: M. tuberculosis growth (absorbance);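 0% = vehicle and 100% = reference antibiotic; read after six days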
* marks the source's active call; other numbers are inactive results; ? = inconclusive; / = not tested or not shown. This is a random part of the collection, and some 3.9% of all compounds hit somewhere here.

SMILES,ugtP null kill,Mtb hypoxia rep,Mtb hypoxia rep growth,Autofluor counter,PrP UTR inh,RN4220 kill,BJeLR lethal
CN1CCc2c1nc1ccccc1c2N (tested in a mixture with another compound),3,14,7,3683,-12,4.9,11
C=CCn1c(SCc2csc(C)n2)nc2scc(-c3ccc(C)o3)c2c1=O,-4,8,9,21130*,-12,4.4,-7
Cc1cc2ccccc2n2c(SCC(=O)N3CCOCC3)nnc12,5,-1,-7,2659,-23,1.8,-4
O=C(CCCn1c(=S)[nH]c2ccsc2c1=O)NCCc1ccccc1,3,0,-2,4760,-2,0.5,-8
C=CCN(Cc1nc(-c2ccccc2)no1)C(=O)c1ccoc1C,5,12,13,5479,-30,1.8,8
CN1C(=O)c2ccc(N(C)C)cc2C1=O,0,/,/,3530,-12,2.0,0
CCN(CC)C(=O)CN1CCC(n2c(C)nc3cc(C(F)(F)F)ccc32)CC1,13,10,8,7273,-22,3.8,-10
Cc1ccc(C)c(NC(=O)c2cnc3n(c2=O)CCS3)c1,-3,17,11,3170,-53,-0.5,-2
CCOC(=O)N1CCN(C(=O)c2ccc(-n3c(C)ccc3C)cc2)CC1,/,/,/,2138,-35,/,-1
C=CCOc1ccc(C2/C(=C(\O)c3c(C)[nH]c(C(=O)OC)c3C)C(=O)C(=O)N2CCN(C)C)cc1 (stereo unspecified),-4,/,/,3399,-28,-15,0
O=C(O)C1CSC(c2coc3ccccc3c2=O)N1 (stereo unspecified),1,-9,-9,2122,-25,6.9,-4
CCN(CC)C(=O)[C@H]1C[C@H](CC(=O)NCCN2CCOCC2)C(=O)N2CCc3c([nH]c4cc(-c5ccco5)ccc34)[C@]12C,0,0,9,3390,-10,0.1,/
c1ccc(CSc2nnc3ccc(-c4cccs4)nn23)nc1,4,11,16,6284,-4,3.9,1
CCN1CCN(c2ccc(NC(=O)CCc3c(C)nc4c(-c5ccc(F)cc5)c(C)nn4c3C)cc2)CC1,-3,8,10,2030,-18,-3.6,9
CC(=O)N1CCN(S(=O)(=O)c2cccc(C(=O)Nc3cc(C(F)(F)F)ccc3N3CCOCC3)c2)CC1,3,3,6,5796,-6,1.3,-4
Cc1cccc(OCCC(=O)Nc2ccc(F)c(Cl)c2)c1,-32,9,3,1939,-9,-2.5,2
Cc1ccccc1OCC(=O)N1N=C(c2cccnc2)CC1(O)C(F)(F)F (stereo unspecified),2,10,4,2416,-9,6.3,12
CSc1ccccc1-c1nc(-c2ccncc2)no1,3,5,9,3203,-66,4.5,3
Cc1cccc(CCNC(=O)c2cccc3c2C(=O)N(C2CCCCC2)C3)c1,-15,6,5,5549,-26,0.6,3
O=C(c1cc([N+](=O)[O-])ccc1N1CCNCC1)N1CCOCC1,4,3,6,2159,-7,4.3,2
CCOc1ccc2oc(C(=O)Nc3cc(C)ccn3)c(C)c2c1,6,-9,-3,/,-45,4.2,14
COc1ccc(-c2csc(NC(=O)CC(NC(C)=O)c3ccccc3)n2)cc1OC (stereo unspecified),6,2,-2,4467,-28,1.8,-4
O=C(COc1coc(CN2CCN(c3ccccc3)CC2)cc1=O)NCC1CCCO1 (stereo unspecified),5,6,3,5030,-38,-0.6,0
CN(C)CCOC(C1CCCCC1)C1CCCCC1,0,11,10,24587*,-12,3.2,3
O=C(O)c1cccnc1Nc1ccc(Cl)cc1,-11,2,8,3490,-37,13,29
CCN1C(=O)[C@H]2[C@@H](c3ccc(C)cc3)N3C(=O)N(c4cccc(F)c4)C(=O)[C@@]3(C)[C@H]2C1=O,/,/,/,3592,-16,/,-5
Cn1c(=O)[nH]c(=O)c2c1nc(Br)n2CC(O)c1ccccc1 (stereo unspecified),-3,/,/,2880,-13,1.3,-9
Cc1ccc(CCNc2ncnc(Cl)c2N)cc1,5,6,7,?,-51,0.2,/
Cc1cc(C)c(S(=O)(=O)N2CCCCC2)cc1N(C)S(=O)(=O)c1ccc(Cl)cc1,4,/,/,2371,-9,6.0,-6
CC(=O)/C=C1\SC(CC(=O)O)C(=O)N1c1ccccc1 (stereo unspecified),6,20,6,9003,-8,3.5,-9

Given with two lines to a compound: entries from further up
Order of results – ugtP null kill | Mtb hypoxia rep | Mtb hypoxia rep growth | Autofluor counter | PrP UTR inh | RN4220 kill | BJeLR lethal
> Cc1cc(C)c(S(=O)(=O)N2CCCCC2)cc1N(C)S(=O)(=O)c1ccc(Cl)cc1
→ 4 | / | / | 2371 | -9 | 6.0 | -6
> CC(=O)/C=C1\SC(CC(=O)O)C(=O)N1c1ccccc1 (stereo unspecified)
→ 6 | 20 | 6 | 9003 | -8 | 3.5 | -9

The listing continues.
SMILES,ugtP null kill,Mtb hypoxia rep,Mtb hypoxia rep growth,Autofluor counter,PrP UTR inh,RN4220 kill,BJeLR lethal
CC(=O)C(Sc1nc(N(C)C)nc(N(C)C)n1)C(=O)Nc1ccccc1 (stereo unspecified),5,7,9,4768,-21,2.0,6
CC1(C)CC(=O)C2=C(C1)OC1=C(C(=O)CC(C)(C)C1)C2(C)C,2,3,5,/,/,4.9,-8
COCCn1c(SCC(=O)Nc2ccc3c(c2)OCCO3)nnc1-c1ccncc1,8,6,5,3699,-11,3.5,/
CC(C)C(NC(=O)c1ccc(C(C)(C)C)cc1)C(=O)NCC1(N(C)C)CCCCC1 (stereo unspecified),4,-10,5,3743,-16,2.7,-4
COC(=O)C1=C(c2ccc(OC)c(OC)c2)CC2CCC1N2C(=O)NC(C)C (stereo unspecified),-5,4,3,/,/,4.2,/
COc1cc(C2C(C(=O)OC(C)C)=C(C)Nc3ncnn32)cc(OC)c1OC (stereo unspecified),4,-2,12,4496,-10,14,-1
CC(C)=C1C2CCC1C(C(=O)Nc1cc(C)cc(C)c1)C2C(=O)O (stereo unspecified),17,4,-4,2157,-14,13,10
C=CCNC(=O)c1ccc2c(=O)n(CCCN3CCCC3=O)c(=S)[nH]c2c1,-63,3,-8,4233,-14,7.2,9
COC(=O)c1c(NC(=O)c2cccnc2Cl)sc(C(=O)N(C)C)c1C,0,7,11,2307,-11,5.7,-1
O=C(CN1CCCN(S(=O)(=O)c2ccc(Br)cc2)CC1)Nc1ccc2cn[nH]c2c1,-3,/,/,/,/,-0.3,-6
COc1ccc(-c2nnc(SCC(=O)Nc3ccc(C(=O)O)cc3)n2-c2ccc(Cl)cc2)cc1,8,-2,9,3869,-17,-1.2,-3
CCCC(=O)Nc1cc(S(=O)(=O)N(CC)CC)ccc1Cl,-1,5,0,2550,-14,2.0,8
CCN1C(=O)C2C(c3ccc(-c4ccc(Cl)c(Cl)c4)cc3)N[C@@](CC(C)C)(C(=O)OC)C2C1=O (stereo partly specified),-7,-5,3,/,/,-6.6,/
O=C(/C=C/NNC(=O)c1ccccc1O)c1ccccc1,7,-5,-6,3857,-19,0.4,7
COc1ccc(-n2c(Cn3c(=O)sc4ccccc43)nnc2SC)cc1,9,/,/,6040,17,3.3,-7
C=CCOc1ccc(C2=NOC(C(=O)Nc3ccc4c(c3)OCCO4)C2)cc1 (stereo unspecified),26,5,-6,5031,-8,0.3,5
C#CCNC(=O)C1=C[C@H](C)[C@@H](CCCO)[C@H](OCC)O1,-8,4,0,4083,-17,-13,3
S=c1[nH]nc(C2CCCCC2)n1/N=C/c1ccccn1,/,/,/,2143,-25,/,-7
C=CCn1c(N)cc(=O)nc1SCC(=O)Nc1ccc(C)cc1,2,10,4,4463,-20,3.7,-2
C=CCN1C(=O)c2ccc(C(=O)N(CC(C)C)c3c(N)n(CCCC)c(=O)[nH]c3=O)cc2C1=O,6,0,8,/,-3,2.4,-2
CCC(C)Sc1ccc([C@H]2N[C@@](C)(C(=O)OC)[C@H]3C(=O)N(C)C(=O)[C@@H]23)cc1OC (stereo partly specified),-1,6,0,4292,-11,-13,-3
C/C(=N/NC(=O)CN(c1ccccc1)S(=O)(=O)c1ccccc1)c1ccccc1O,/,/,/,4262,-13,/,10
COc1ccc(-n2c(C)cc(/C=C3\SC(=O)NC3=O)c2C)cc1,5,-1,3,3558,-9,5.7,2
COC(=O)C1=C(c2cccc(OCc3ccccc3)c2)CC2CCC1N2C(=O)NCc1cccc(F)c1 (stereo unspecified),8,5,6,/,/,-6.8,/
COc1cccc(N2CN(CCc3ccccc3)CNC2=S)c1,3,18,12,3380,/,0.6,-11
CN(c1ccccc1)c1nc(-n2ccnc2)nc(-n2ccnc2)n1,8,5,0,4521,3,1.1,-2

6 entries from above, ordered by length of the SMILES, low to high:
SMILES,ugtP null kill,Mtb hypoxia rep,Mtb hypoxia rep growth,Autofluor counter,PrP UTR inh,RN4220 kill,BJeLR lethal
COc1cccc(N2CN(CCc3ccccc3)CNC2=S)c1,3,18,12,3380,/,0.6,-11
S=c1[nH]nc(C2CCCCC2)n1/N=C/c1ccccn1,/,/,/,2143,-25,/,-7
C=CCn1c(N)cc(=O)nc1SCC(=O)Nc1ccc(C)cc1,2,10,4,4463,-20,3.7,-2
COc1ccc(-n2c(C)cc(/C=C3\SC(=O)NC3=O)c2C)cc1,5,-1,3,3558,-9,5.7,2
COC(=O)C1=C(c2cccc(OCc3ccccc3)c2)CC2CCC1N2C(=O)NCc1cccc(F)c1 (stereo unspecified),8,5,6,/,/,-6.8,/
CCC(C)Sc1ccc([C@H]2N[C@@](C)(C(=O)OC)[C@H]3C(=O)N(C)C(=O)[C@@H]23)cc1OC (stereo partly specified),-1,6,0,4292,-11,-13,-3
